FGF22 binding: FGF22 (human) thermal shift binding; calls only at 9.99 µM; recombinant FGF22 thermal shift, SYPRO orange fluorescence; percent of sucrose octasulfate shift, DMSO zero; Q9HCT0; 1.5% of 340,000 active;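 active = melting point raised past a set limit in the mean and every replicate; three in four hits are not shown here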
Target sequence (Q9HCT0 whole entry, looked up): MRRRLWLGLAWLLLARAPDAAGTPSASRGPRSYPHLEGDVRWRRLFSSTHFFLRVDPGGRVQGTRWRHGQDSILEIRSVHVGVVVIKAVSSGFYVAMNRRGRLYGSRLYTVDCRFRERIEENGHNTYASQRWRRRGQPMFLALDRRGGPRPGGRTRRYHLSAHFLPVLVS
Ecoli rRNA inh: inhibitors of bacterial rRNA selective over humanized ribosomes. E. coli WT GFP vs humanized-ribosome RFP mutants, fluorescence, 24 h; stronger effect = lower value; DMSO median 0, no signal -100. GFP signal change (wild-type ribosome), % (test concentration not listed). 1.6% of 350,000 active;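 active = significant combined selectivity score with lowered wild-type GFP, culture density cut under 30%, mutant RFP and density less affected; inactive = any of these conditions unmet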; note: one replicate is shown; some compounds called inactive have numbers as strong as hits
AF4-AF9 inh: MLL-AF4/AF9 protein interaction inhibition | 0.47% of 350,000 active | inhibition, % at 10 µM | AlphaScreen, biotin-AF4 peptide binding to FLAG-AF9 | P42568;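 active = every replicate reaching a set inhibition limit, whatever the replicate mean, cut at about 25% in these data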;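 note: 0% = plate neutral control median and 100% = total signal loss; the record names both 10 and 1 µM as test concentration; the first replicate is given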
Target sequence (P42568 whole entry, looked up): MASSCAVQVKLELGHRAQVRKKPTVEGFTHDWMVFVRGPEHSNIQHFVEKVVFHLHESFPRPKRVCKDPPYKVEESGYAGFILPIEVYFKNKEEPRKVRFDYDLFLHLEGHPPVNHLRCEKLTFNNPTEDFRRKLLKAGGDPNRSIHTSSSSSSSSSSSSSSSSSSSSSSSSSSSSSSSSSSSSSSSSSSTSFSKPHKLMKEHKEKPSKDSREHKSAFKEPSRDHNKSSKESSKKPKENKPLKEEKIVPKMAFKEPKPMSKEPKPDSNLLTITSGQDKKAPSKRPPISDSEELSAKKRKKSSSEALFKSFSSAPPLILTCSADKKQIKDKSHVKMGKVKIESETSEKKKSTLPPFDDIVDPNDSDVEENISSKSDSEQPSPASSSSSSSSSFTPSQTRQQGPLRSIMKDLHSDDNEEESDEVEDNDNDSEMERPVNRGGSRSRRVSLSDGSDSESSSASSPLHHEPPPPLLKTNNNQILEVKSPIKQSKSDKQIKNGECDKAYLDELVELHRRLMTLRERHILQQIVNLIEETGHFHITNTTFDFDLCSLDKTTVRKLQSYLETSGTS
Ecoli rRNA inh OD600: also measured in Ecoli rRNA inh; calls as there; OD600 change, %; measured here: OD600 growth;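 optical density of the mix in the first replicate; 0 = DMSO median and -100 = no signal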
Ecoli rRNA inh RFP: second read-out of Ecoli rRNA inh, no call of its own (marks repeat the call); RFP signal change, %; measured here: RFP humanized mutant strains;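 first replicate; 0 = DMSO median and -100 = no signal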
Numbers without * were called inactive; i = inactive; + = active, no number; & = joins results of further samples.

mol	FGF22 binding	Ecoli rRNA inh	Ecoli rRNA inh OD600	Ecoli rRNA inh RFP	AF4-AF9 inh
CC(C)NC(=O)Nc1ccc2c(c1)C(=O)N([C@H](C)CO)C[C@H](C)[C@@H](CN(C)S(=O)(=O)c1ccccc1)OCCCC[C@@H](C)O2	i	6&0	13&4	1.9&-0.3	-1.1&-3.5
CC(C)C1C(=O)N(Cc2cn(CCC3OCCCO3)nn2)CCS(=O)(=O)N1Cc1ccc(-c2cccc(CO)c2)cc1 (centres undefined)	i	-16	-9	3.9	-0.2
CC1(C(=O)NS(=O)(=O)Cc2ccccc2)CCN1C(=O)C/C=C/c1ccccc1 (centres undefined)	i	10	20	4.9	-1.8
CC(=O)Nc1ccc(S(=O)(=O)CC(=O)CS(=O)(=O)c2ccc(NC(C)=O)cc2)cc1	i	4	6	-0.9	-1.2
Clc1ccc(-c2nc(CSc3ccccn3)cs2)cc1	i	0	-24	-2.4	-1.5
C[C@H](CO)N1C[C@H](C)[C@@H](CN(C)C(=O)Nc2ccccc2)Oc2ccc(NC(=O)Nc3ccc(C(F)(F)F)cc3)cc2CC1=O	i	-1	-15	-2.1	0.1
C[C@H]1CN([C@@H](C)CO)C(=O)Cc2cc(NC(=O)CCC(F)(F)F)ccc2O[C@@H]1CN(C)C(=O)Nc1ccccc1	i	4	0	-2.5	-4.5
C[C@@H](O)CNC(=O)c1[nH]cnc1C(=O)N[C@H](C)c1ccccc1	i	7	5	0.8	-0.7
C[C@H](CO)N1C[C@H](C)[C@@H](CN(C)Cc2ccc(Cl)c(Cl)c2)Oc2c(NC(=O)Nc3ccccc3)cccc2C1=O	i	4	-1	-0.9	2.7
O=C(C[C@@H]1CC[C@@H]2[C@H](COC[C@H](O)CN2Cc2nccs2)O1)NCc1ccccc1F	i	-1	7	1.9	-2.5
COC(=O)C[C@H]1CC[C@H]2[C@@H](COc3ccc(NS(=O)(=O)c4ccc(F)cc4)cc3C(=O)N2C)O1	i	-2	1	-1.1	-1.6
CCCNC(=O)Nc1ccc2c(c1)C(=O)N(C)C[C@H](OC)[C@@H](C)CN(C(=O)C1CCC1)[C@@H](C)CO2	i	3	2	-0.9	-2.6
C[C@H]1CN([C@@H](C)CO)C(=O)Cc2cc(NC(=O)C3CCCCC3)ccc2O[C@H]1CN(C)Cc1ccc(Cl)c(Cl)c1	i	2	-3	0.8	-0.3
C[C@@H]1CCCCO[C@H](CN(C)S(=O)(=O)c2ccc(F)cc2)[C@H](C)CN([C@@H](C)CO)C(=O)c2cc(NC(=O)NC3CCCCC3)ccc2O1	i	-2	-4	-2.2	-0.8
CCN(CC)C(=O)C(c1ccccc1)S(=O)(=O)N1CCOCC1 (centres undefined)	i	7	4	2.1	-1.5
CO[C@H]1CN(C)C(=O)c2cc(NC(C)=O)ccc2OC[C@@H](C)N(C(=O)Cc2ccccn2)C[C@@H]1C	i	4	-2	3.0	29*
Cc1noc(C)c1NC(=O)N(C)C[C@@H]1Oc2ccc(NC(=O)Nc3ccccc3)cc2C(=O)N([C@@H](C)CO)C[C@@H]1C	i	2	2	-0.7	-1.0
c1ccc(CNc2ncn[nH]2)cc1	i	9	16	0.7	-1.5
COc1ccc(NC(=O)N(C)C[C@@H]2Oc3ccc(N(C)C)cc3CC(=O)N([C@H](C)CO)C[C@H]2C)cc1	i	4	-10	2.0	-3.4
C[C@@H](NC(=O)C[C@H]1CC[C@H]2[C@@H](COC[C@@H](O)CN2C)O1)c1ccccc1	i	3	20	-3.3	1.5
C[C@H](CO)N1C[C@H](C)[C@@H](CN(C)Cc2ccc(Cl)c(Cl)c2)Oc2c(NS(=O)(=O)c3ccc(Cl)cc3)cccc2C1=O	i	2	4	-1.8	-1.3
C[C@H]1CN([C@@H](C)CO)C(=O)c2cccc(NC(=O)C3CCCCC3)c2O[C@@H]1CN(C)S(=O)(=O)c1cccs1	i	-2	-8	1.7	-0.3
CCCN(C)C[C@H]1Oc2cc(C#Cc3cccnc3)ccc2S(=O)(=O)N([C@H](C)CO)C[C@@H]1C	+	-4	-2	1.1	1.5
COc1ccc(NC(=O)Nc2ccc3c(c2)CC(=O)N([C@@H](C)CO)C[C@H](C)[C@@H](CN(C)C(=O)NC(C)C)O3)cc1	i	0	0	1.2	-4.2
O=C(C[C@H]1C[C@H]2c3cc(NS(=O)(=O)c4ccc(F)cc4)ccc3O[C@H]2[C@@H](CO)O1)NCCN1CCCCC1	i	4	11	0.5	4.8
C[C@@H]1CCCCO[C@@H](CN(C)C(=O)NC2CCCCC2)[C@@H](C)CN([C@H](C)CO)C(=O)c2cc(NS(=O)(=O)c3ccc(F)cc3)ccc2O1	i	2	-7	-1.5	-3.1
COc1cccc(NC(=O)N2CC3(C2)[C@H](c2ccccc2)[C@H](CO)N3C(C)=O)c1	i	4	20	-2.1	2.8
CCNC(=O)C[C@@H]1CC[C@@H]2[C@H](COC[C@@H](O)CN2Cc2ccncc2)O1	i	5	2	-2.6	-3.0
CCN(C[C@@H]1N[C@@H](CO)[C@H]1c1ccc(-c2cccc(C#N)c2)cc1)C(C)=O	i	2	5	-1.4	-0.8
CO[C@@H]1CN(C)C(=O)c2cc(NC(=O)C3CC3)ccc2OC[C@@H](C)N(C(=O)c2ccncc2)C[C@@H]1C	i	-1	1	-2.1	11

Three compounds already listed, ordered by the value under AF4-AF9 inh, high to low.
SMILES	FGF22 binding	Ecoli rRNA inh	Ecoli rRNA inh OD600	Ecoli rRNA inh RFP	AF4-AF9 inh
CO[C@@H]1CN(C)C(=O)c2cc(NC(=O)C3CC3)ccc2OC[C@@H](C)N(C(=O)c2ccncc2)C[C@@H]1C	i	-1	1	-2.1	11
CCCN(C)C[C@H]1Oc2cc(C#Cc3cccnc3)ccc2S(=O)(=O)N([C@H](C)CO)C[C@@H]1C	+	-4	-2	1.1	1.5
C[C@H](CO)N1C[C@H](C)[C@@H](CN(C)Cc2ccc(Cl)c(Cl)c2)Oc2c(NS(=O)(=O)c3ccc(Cl)cc3)cccc2C1=O	i	2	4	-1.8	-1.3

(continued)
mol	FGF22 binding	Ecoli rRNA inh	Ecoli rRNA inh OD600	Ecoli rRNA inh RFP	AF4-AF9 inh
CO[C@@H]1CN(C)C(=O)c2cc(NC(=O)Nc3cccc(F)c3)ccc2OC[C@@H](C)N(C(C)=O)C[C@H]1C	i	-5	-5	0.8	-0.2
Cc1ccc(S(=O)(=O)N(C)C[C@H]2Oc3ncc(C#CCC(C)C)cc3C(=O)N([C@@H](C)CO)C[C@@H]2C)cc1	i	-2	8	3.6	1.1
COc1ccc(CN(C)C[C@@H]2Oc3c(NC(=O)Nc4ccccc4)cccc3C(=O)N([C@@H](C)CO)C[C@@H]2C)cc1	i	2	-1	-0.4	-6.1
C[C@H](CO)N1C[C@H](C)[C@H](CN(C)C(=O)c2ccncc2)Oc2cc(C#C[C@@H](C)O)ccc2S1(=O)=O	i	1	8	-3.7	-4.6
COc1ccccc1C(=O)N1C[C@H]2[C@@H](c3ccccc31)[C@H](CO)N2C(=O)Cc1cccnc1	i	4	5	0.9	1.2
CCC(=O)N1[C@H](C(=O)Nc2nccs2)[C@@H](CO)[C@@H]2Cn3c(ccc(/C=C/c4ccccc4)c3=O)[C@@H]21	i	-7	-18	0.9	-11
C[C@@H]1CN([C@H](C)CO)C(=O)c2cc(NC(=O)Nc3ccc(F)cc3)ccc2O[C@@H]1CN(C)C(=O)Nc1ccc(F)cc1	i	-2	-12	0.2	2.3
Cc1cc(C(=O)CCC(=O)Nc2ccc(C(N)=O)cc2)c(C)s1	i	4	-2	0.1	0.3
CN(C)c1ccc2c(c1)[C@H]1C[C@H](CC(=O)NCc3ccc4c(c3)OCO4)O[C@H](CO)[C@H]1O2	i	-2	-1	1.2	5.8
CCCC#Cc1cnc2c(c1)C(=O)N([C@H](C)CO)C[C@H](C)[C@H](CN(C)C(=O)Cc1cccnc1)O2	i	-2	0	-1.9	-3.9
C[C@@H]1CN([C@@H](C)CO)C(=O)Cc2cc(NC(=O)CCN3CCOCC3)ccc2O[C@@H]1CN(C)Cc1ccc(C(=O)Nc2ccccc2N)cc1	i	-3	2	-1.7	-3.2
CCOC1=C2[C@H](c3ccccc3Cl)N(S(=O)(=O)c3ccc(C)cc3)C[C@H]2C(C#N)(C#N)C(C#N)(C#N)C1	i	-33	-49	0.8	-0.1
C[C@@H]1CN([C@@H](C)CO)C(=O)CCCn2nncc2CO[C@H]1CN(C)Cc1ccc(O)cc1	i	1&0	4&15	-0.7&-2.7	0.2&-2.0
CNC[C@@H]1Oc2ccc(NC(=O)Nc3ccc(C(F)(F)F)cc3)cc2CC(=O)N([C@@H](C)CO)C[C@@H]1C	i	4	6	-3.0	3.1
CO[C@@H]1CN(C)C(=O)c2cc(NC(=O)Nc3cccc(F)c3)ccc2OC[C@H](C)N(C(=O)Nc2c(C)noc2C)C[C@@H]1C	i	-3	-8	-1.4	2.2

Seven entries from above, arranged by molar mass, smallest number first:
mol	FGF22 binding	Ecoli rRNA inh	Ecoli rRNA inh OD600	Ecoli rRNA inh RFP	AF4-AF9 inh
c1ccc(CNc2ncn[nH]2)cc1	i	9	16	0.7	-1.5
Cc1cc(C(=O)CCC(=O)Nc2ccc(C(N)=O)cc2)c(C)s1	i	4	-2	0.1	0.3
C[C@@H]1CN([C@@H](C)CO)C(=O)CCCn2nncc2CO[C@H]1CN(C)Cc1ccc(O)cc1	i	1&0	4&15	-0.7&-2.7	0.2&-2.0
C[C@H](CO)N1C[C@H](C)[C@@H](CN(C)C(=O)Nc2ccccc2)Oc2ccc(NC(=O)Nc3ccc(C(F)(F)F)cc3)cc2CC1=O	i	-1	-15	-2.1	0.1
CC(C)NC(=O)Nc1ccc2c(c1)C(=O)N([C@H](C)CO)C[C@H](C)[C@@H](CN(C)S(=O)(=O)c1ccccc1)OCCCC[C@@H](C)O2	i	6&0	13&4	1.9&-0.3	-1.1&-3.5
C[C@@H]1CN([C@@H](C)CO)C(=O)Cc2cc(NC(=O)CCN3CCOCC3)ccc2O[C@@H]1CN(C)Cc1ccc(C(=O)Nc2ccccc2N)cc1	i	-3	2	-1.7	-3.2
C[C@@H]1CCCCO[C@H](CN(C)S(=O)(=O)c2ccc(F)cc2)[C@H](C)CN([C@@H](C)CO)C(=O)c2cc(NC(=O)NC3CCCCC3)ccc2O1	i	-2	-4	-2.2	-0.8

Next part.
Codes: A = FGF22 binding; B = Ecoli rRNA inh; C = Ecoli rRNA inh OD600; D = Ecoli rRNA inh RFP; E = AF4-AF9 inh
Compound: O=C(O)C[C@H]1C=C[C@@H](NC(=O)Nc2cc(F)ccc2F)[C@H](CO)O1
  A: i; B: 0; C: 10; D: -0.1; E: -2.6
Compound: COc1ccc(NC(=O)Nc2ccc3c(c2)CC(=O)N([C@H](C)CO)C[C@H](C)[C@@H](CN(C)CC2CCCCC2)O3)cc1
  A: i; B: 1; C: -24; D: 12; E: 15
Compound: C[C@@H]1CN([C@@H](C)CO)C(=O)c2cc(Br)cnc2O[C@@H]1CN(C)C(=O)CN(C)C
  A: i; B: 13&1; C: 21&3; D: 3.2&2.5; E: -0.5&-3.1
Compound: CCCN1C[C@H](C)[C@H](OC)CN(C)C(=O)c2ccc(NC(=O)Nc3c(C)noc3C)cc2OC[C@H]1C
  A: i; B: 2; C: 9; D: -0.5; E: -1.0
Compound: Cc1noc(C)c1S(=O)(=O)Nc1ccc2c(c1)C(=O)N([C@H](C)CO)C[C@H](C)[C@H](CN(C)Cc1ccc3c(c1)OCO3)OCCCC[C@H](C)O2
  A: i; B: -4; C: -7; D: 1.3; E: 3.7
Compound: O=C(c1cccc(F)c1)N1C[C@H]2[C@@H](c3ccccc31)[C@@H](CO)N2C(=O)Cc1ccccc1
  A: i; B: 2; C: 10; D: -2.3; E: -1.7
Compound: C[C@@H]1CN([C@@H](C)CO)C(=O)c2cccc(NC(=O)CCCCCC(=O)Nc3ccccc3N)c2O[C@@H]1CN(C)C
  A: i; B: 6; C: 8; D: -0.8; E: 1.1
Compound: Cn1c(=O)c2cc(NC(=O)NCCc3cccs3)ccc2n1C/C=C/c1ccccc1
  A: i; B: -3; C: -12; D: -3.5; E: -4.0
Compound: O=[N+]([O-])c1cccc(COc2cccc(CN3CCOCC3)c2)c1
  A: i; B: 0; C: 4; D: 2.7; E: 5.2

From PubChem

An excerpt; count on the stated rates, not on these rows.
